# KCNQ2 enhance – KCNQ2 (rat) channel potentiation; O88943; CHO-K1 KCNQ2, FluxOR thallium flux fluorescence; active compounds read high; B-score at 10 µM; 310,000 tested, 0.54% active;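 active = fluorescence ratio B-score at least 3 SD of library B-scores, with initial fluorescence B-score within 3 SD, cut at about 5.3 in these data; same plate scores as AID 2156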;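 note: B-score of peak minus minimum over baseline fluorescence ratio after K+ and Tl+ stimulus; positive B-score means potentiation of KCNQ2 with more thallium influx and brighter signal; only the inactives scoring about 0 or higher are listed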
# Target sequence (O88943 whole entry, looked up): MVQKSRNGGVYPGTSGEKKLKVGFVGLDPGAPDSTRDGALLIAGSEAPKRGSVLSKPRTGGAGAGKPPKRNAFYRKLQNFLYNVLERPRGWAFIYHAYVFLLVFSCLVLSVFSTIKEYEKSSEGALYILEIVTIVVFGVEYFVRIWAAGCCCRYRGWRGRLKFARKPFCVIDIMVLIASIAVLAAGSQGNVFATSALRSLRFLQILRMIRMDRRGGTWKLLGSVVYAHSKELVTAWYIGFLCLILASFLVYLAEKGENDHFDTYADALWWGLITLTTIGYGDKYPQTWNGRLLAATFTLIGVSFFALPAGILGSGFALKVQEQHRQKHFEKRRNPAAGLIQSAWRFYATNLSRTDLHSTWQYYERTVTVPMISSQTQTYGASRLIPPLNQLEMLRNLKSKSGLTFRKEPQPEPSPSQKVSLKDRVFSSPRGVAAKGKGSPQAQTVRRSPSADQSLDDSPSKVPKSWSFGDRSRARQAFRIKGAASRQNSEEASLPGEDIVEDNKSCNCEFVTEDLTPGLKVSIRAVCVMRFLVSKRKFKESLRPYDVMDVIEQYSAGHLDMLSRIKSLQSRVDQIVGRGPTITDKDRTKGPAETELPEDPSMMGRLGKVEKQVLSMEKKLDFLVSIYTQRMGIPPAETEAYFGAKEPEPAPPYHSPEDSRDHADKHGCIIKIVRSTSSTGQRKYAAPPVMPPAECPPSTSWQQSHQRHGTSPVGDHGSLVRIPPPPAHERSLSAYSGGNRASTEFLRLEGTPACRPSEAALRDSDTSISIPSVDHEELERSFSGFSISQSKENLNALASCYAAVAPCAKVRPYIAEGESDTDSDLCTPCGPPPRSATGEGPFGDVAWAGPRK
# KCNQ2 enhance baseline – further read-out of KCNQ2 enhance, marked with its call; B-score; compound at 10 µM; measured here: initial fluorescence intensity artifact check;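 brightness before thallium and not channel activity; 0 = typical well and far values either way flag optical interference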
# * hit, by the source's call.
# Fields – KCNQ2 enhance	KCNQ2 enhance baseline
1: CCCCCn1c(=O)[nH]c2cc(C(=O)NC3CCN(Cc4ccccc4)CC3)ccc2c1=O
  0.08	0.35
2: Cc1cc(C)c2cc(C(=O)Nc3ccccc3)[nH]c2c1
  0.67	-0.01
3: O=C(COc1ccccc1Cl)N(Cc1cccs1)C1CCS(=O)(=O)C1 (configuration not stated)
  0.34	-1.6
4: O=C1CCS/C(=N\N=C\c2ccc(Cl)cc2Cl)N1
  0.13	-1.5
5: COC(=O)C1C2C=CC3(CN(C(C)c4ccc(OC)cc4)C(=O)C13)O2 (configuration not stated)
  1	-0.19
6: O=C(N=C1SC2CS(=O)(=O)CC2N1c1cccc(Cl)c1)C1CCCO1 (configuration not stated)
  0.37	0.96
7: O=C(CSCc1nc2c(nnn2Cc2ccc(F)cc2)c(=O)[nH]1)Nc1c(Cl)cc(Cl)cc1Cl
  0.06	-0.94
8: CCN(CC)S(=O)(=O)c1ccc(C(=O)OCC(=O)Nc2sc3c(c2C#N)CCCCC3)cc1
  0.11	0.37
9: CCCCN(CC)CCNC(=O)CCC(=O)Nc1ccc2nc(N3CCN(C)CC3)cc(C)c2c1
  0.95	0.04
10: N#C/C(=C\c1ccc(Cl)cc1)c1nc2ncccc2[nH]1
  1.9	2
11: c1ccc(Cc2ccc(OCCCNC3CCCC3)cc2)cc1
  0.67	1.4
12: COc1ccc(NC(=O)Cn2nnc(C(=O)NCc3cccs3)c2N)cc1
  0.58	0.46
13: Cc1cc(NC(=O)c2ccco2)ncc1NC(=O)Cc1ccccc1
  1.2	-0.94
14: CC(=O)N1CCN(c2ccc(S(C)(=O)=O)cc2[N+](=O)[O-])CC1
  0.18	0.74
15: CC(=O)N1N=C(c2ccco2)CC1c1ccc(C)cc1 (configuration not stated)
  1.3	-1.4
16: Cc1cc(C)c(C#N)c(Nc2ccc3c(c2)OCCO3)n1
  0.1	0.84
17: O=C(C1CC1)N1CCc2cc(Br)cc(S(=O)(=O)N3CCCCCC3)c21
  0.09	-1.8
18: Fc1ccccc1COc1ccc(/C=N/NC(=S)NCc2ccccc2)cc1
  1.7	-1.8
19: CC1CCc2nn(CC(=O)NCc3ccc4c(c3)OCO4)cc2C1 (configuration not stated)
  0.55	0.88
20: Cc1ccc(NC(=O)CCNS(=O)(=O)c2ccccc2)cc1S(=O)(=O)N1CCOCC1
  0.7	-0.16
21: O=C(O)Cc1c[nH]c2cccc(O)c12
  0.03	-0.87
22: COc1ccc(-c2nc(SC(CC(=O)NCc3ccccc3)c3ccc(OC)c(OC)c3)n[nH]2)cc1 (configuration not stated)
  1.4	-1.9
23: CCOC(=O)c1c(-c2ccccc2)csc1NC(=O)c1cc(-c2ccccc2OC)on1
  0.81	0.84
24: O=C(/C=C/c1ccco1)NCc1ccc2c(c1)OCO2
  0.57	0
25: COC(=O)c1sc2ncn(CC(=O)N(C)C3CCCCC3)c(=O)c2c1C
  2.7	-0.11
26: N#Cc1c(SCC(N)=O)nc(-c2ccccc2)c2c1CCCC2
  0.72	-1.4
27: O=C(c1cc(-c2ccccc2)nc2ccccc12)N1CCN(c2ccccn2)CC1
  0.04	-3.5
28: O=C1NC(=Nc2ccc(O)cc2)S/C1=C/c1ccco1
  0.42	0.21
29: O=C(Nc1ccc2c(c1)OCO2)c1cccc(F)c1
  1.1	-0.82
30: Cc1cc(C)nc(NNC2=CC(=[N+]3CCCC3)CCC2)n1
  0.23	-1.3
31: Cc1cccc(N2CCN(Cc3ccoc3)CC2)c1C
  0.56	-0.01
32: O=C(COC(=O)c1cc(Br)ccc1O)NC1CCCCCC1
  0.06	-0.01
33: COc1ccc(C(=O)NNC2=C(C(=O)C(F)(F)F)CCC2)cc1
  5.5*	-1.4*
34: O=C(NC1CCCC1)C(c1cccnc1)N(C(=O)c1csnn1)C1CCCC1 (configuration not stated)
  0.55	-1.2
35: O=C(Cc1cccc2ccccc12)N/N=C/c1ccc(OC(=O)/C=C/c2ccco2)cc1
  1.3	0.22
36: Cc1ccc(Nc2ccc([N+](=O)[O-])cn2)cc1Cl
  1.5	-0.02
37: Cc1ccc(CC(=O)NCc2ccc(Cl)cc2)cc1
  0.81	-0.44
38: CCOC(=O)c1c(NC(=O)COC(=O)c2ccncc2)sc(C)c1C
  0.04	0
39: CCSc1ccc2cc(OC)ccc2[n+]1CC
  0.19	0.08
40: COc1ccc(NC2CCCN(C(=O)c3c(C)noc3C)C2)cc1 (configuration not stated)
  0.44	-0.05
41: CC1CCCC(NC(=S)NC(=O)c2cncc(Br)c2)C1C (configuration not stated)
  1.2	1.7
42: CCN1CCN(CCNC(=O)C2CCCN(Cc3nc(-c4cccc(Cl)c4)oc3C)C2)CC1 (configuration not stated)
  0.21	-1.5
43: Cc1ccnc2nc(C(=O)Nc3nccs3)nn12
  0.03	0.62
44: O=C(CSc1nnc(-c2ccccc2)n1C1CCCCC1)Nc1ccc(S(=O)(=O)Nc2ccccn2)cc1
  0.93	0.09
45: COc1ccc(C2SCCN2S(=O)(=O)c2ccccc2)cc1OC (configuration not stated)
  1.1	1.2
46: O=[N+]([O-])c1ccc(/C=N/NC2=NS(=O)(=O)c3ccccc32)cc1
  1.4	-0.22
47: COc1ccccc1NC(=O)c1cc([N+](=O)[O-])ccc1N1CCOCC1
  0.06	-0.22
48: CCn1c(C)c(C(C)=O)c(N2CCN(C(=O)c3ccco3)CC2)nc1=S
  0.71	-1.9
49: Cc1ccc([N+](=O)[O-])cc1S(=O)(=O)Nc1ccccn1
  1.2	0.33
50: O=C(COC(=O)c1cnccn1)c1ccc(Cl)c([N+](=O)[O-])c1
  0.29	-2.3
51: CCOC(=O)N1CCN(C(=O)CCC2CCCC2)CC1
  1.3	0.2
52: COc1cc(C(=O)N2CC(C)OC(C)C2)c([N+](=O)[O-])cc1OC (configuration not stated)
  1.8	0.06
53: CC(C)n1nc(C(=O)Nc2nnc(SCc3c(Cl)cccc3Cl)s2)c2ccccc2c1=O
  1.1	-0.01
54: CCN(c1ccccc1)S(=O)(=O)c1ccc(OC)c(NC(=O)CNCCc2ccccc2)c1
  0.02	-2
55: CCOC(=O)COc1cc(N)c(Cl)cc1Cl
  0.24	-0.38
56: Cc1cc(-c2nnc(CCC(=O)NCc3cccc(C(F)(F)F)c3)o2)no1
  0.01	1.1
57: CC1(C)CC(=O)c2cnc(NC(=O)Cc3ccc(Cl)cc3)nc2C1
  0.45	-1.9
58: CC(=O)c1ccc(-n2nncc2C(C)(C)C)cc1
  1.4	-0.45
59: Cc1cc(=O)[nH]c(SCC(=O)NC(C)C2CC3CCC2C3)c1C#N (configuration not stated)
  0.01	-0.21
60: C=CCOc1c(Cl)cc(CNc2nccs2)cc1OC
  0.61	0.57

# Looked up one by one from the entries so far, 7 records:
# Fields – KCNQ2 enhance	KCNQ2 enhance baseline
31: Cc1cccc(N2CCN(Cc3ccoc3)CC2)c1C
  0.56	-0.01
21: O=C(O)Cc1c[nH]c2cccc(O)c12
  0.03	-0.87
17: O=C(C1CC1)N1CCc2cc(Br)cc(S(=O)(=O)N3CCCCCC3)c21
  0.09	-1.8
55: CCOC(=O)COc1cc(N)c(Cl)cc1Cl
  0.24	-0.38
23: CCOC(=O)c1c(-c2ccccc2)csc1NC(=O)c1cc(-c2ccccc2OC)on1
  0.81	0.84
43: Cc1ccnc2nc(C(=O)Nc3nccs3)nn12
  0.03	0.62
15: CC(=O)N1N=C(c2ccco2)CC1c1ccc(C)cc1 (configuration not stated)
  1.3	-1.4

# More structures follow.
# Fields – KCNQ2 enhance	KCNQ2 enhance baseline
61: CC(/C=C1\SC(=S)N(CCCC(=O)Nc2ccc(C(=O)O)cc2)C1=O)=C\c1ccccc1
  0.01	0.73
62: Cc1cc(C)c2c(n1)sc1c(N3CCN(C)CC3)ncnc12
  0.97	-1.6
63: Cc1ccc(S(=O)(=O)N2CCCCC2)cc1C(=O)N1CCN(c2ccccn2)CC1
  0.4	-1.1
64: O=C(c1cnn2c(C(F)(F)F)cc(-c3cccs3)nc12)N1CCN(Cc2ccccc2)CC1
  0.14	-0.55
65: COC(=O)c1sccc1NC(=O)CC1NCCNC1=O (configuration not stated)
  0.47	1.2
66: CCCn1cc(S(=O)(=O)c2ccc(F)cc2)c(=O)c2cc(OCC)ccc21
  0.52	-2.6
67: CC1CCN(C(=O)/C(=C\c2ccco2)NC(=O)c2ccccc2)CC1
  0.05	-1
68: COCc1cc(C)nc(SCC[N+](C)(C)CC(=O)c2ccc(Br)cc2)c1C#N
  0.39	0.88
69: COc1ccc(-n2nnnc2SCC(=O)N2CCN(C(=O)c3ccco3)CC2)cc1OC
  0.05	1.3
70: Cc1cccc2nc(CSc3nnc(N)s3)cn12
  0.38	-1.5
71: O=c1oc2cc(OCc3ccc(F)cc3F)ccc2cc1-c1ccccn1
  1.3	-0.47
72: Nc1[nH]c(N=NC(=O)c2ccccc2O)c2ccccc12
  0.02	0.77
73: CCN(CC)C(=O)C1CCCc2c1[nH]c1ccc(Cl)cc21 (configuration not stated)
  0.19	0.77
74: COc1ccccc1CC(=O)Nc1ccc(S(=O)(=O)N2CCCC2)cc1
  0.44	0.67
75: Cc1ccc[n+](CC(=O)Nc2ccc([N+](=O)[O-])cc2)c1
  0.47	-0.38
76: O=C(O)C1Nc2c(C(=O)N3CCOCC3)cccc2C2C=CCC12 (configuration not stated)
  0.23	0.01
77: CC(C)(C)c1ccc(C(=O)Nc2cnccn2)cc1
  2.1	-2.4
78: COc1ccc(CC(=O)c2cc(OC)c(OC)cc2CC(=O)O)cc1OC
  0.27	1.1
79: COc1ccccc1NC(=O)NC(=O)N(C(C)C)S(C)(=O)=O
  0.9	-0.43
80: Clc1ccc(Sc2ccccn2)cc1
  1.2	-3.3
81: CCCCCN(C(=O)CCC(=O)OCc1ccccc1F)c1c(N)n(CCCC)c(=O)[nH]c1=O
  0.17	0.6
82: CC1CCN(C(=O)C2CCC(=O)N(Cc3ccc(Cl)cc3)C2)CC1 (configuration not stated)
  0.04	0
83: CN(c1ccccc1)S(=O)(=O)c1cc(C(=O)OCC(=O)N2CCN(C(=O)c3ccco3)CC2)ccc1Cl
  2.6	1.4
84: CCOC(=O)N1CCC(NC(=O)C2CCCN(c3nc4ccccc4o3)C2)CC1 (configuration not stated)
  0.58	-1.1
85: COc1ccc(C(=O)NC(=S)Nc2cccc3nc(C)ccc23)cc1OC
  1.6	0.23
86: CN(Cc1c(C(=O)N/N=C/c2c(F)cccc2Cl)nnn1-c1nonc1N)c1ccccc1
  0.03	-1.2
87: CCOC(=O)N1CCC(Nc2nc3ccccc3n3cnnc23)CC1
  2.6	-1.2
88: COc1ccc(Cc2nc3ccccc3c(=O)n2N)cc1OC
  1.4	0
89: CCOc1ccccc1NC(=O)COc1ccc(S(=O)(=O)N2CCCC2)cc1
  0.17	0.84
90: COc1ccc(NC(=O)CN(C)C(=O)CN2C(=O)C3CCCCC3C2=O)cc1 (configuration not stated)
  0.46	0.07
91: CS(=O)(=O)N(CC(=O)Nc1ccc(C(N)=O)cc1)C1CCCCC1
  0.26	-0.67
92: O=C(NCCN1CCOCC1)C1CCCN(S(=O)(=O)c2ccc(F)cc2)C1 (configuration not stated)
  0.37	0
93: COC(=O)\C(C(C)=O)=C(/C=C/C=C/C=C/N(C)C)N(C)C
  0.36	0.53
94: Cc1ccc(NC(=O)c2ccc3c(c2)CCN3S(C)(=O)=O)c(C)c1
  0.7	0.08
95: CCOC(=O)c1c(C)[nH]c(C(=O)OCc2ccccc2)c1C
  1.3	-0.43
96: CC(=O)c1c(OCC(=O)O)ccc2c(C)cc(=O)oc12
  1.7	1.5
97: COc1ccc2c(OC)c3ccoc3nc2c1OC
  1	-1.4
98: COc1ccc(O)c(CN2CCC(n3nccc3NC(=O)c3ccccc3Cl)CC2)c1
  1.2	0.72
99: CCCC(=O)N(CCN1CCOCC1)c1nc2c(OCC)cccc2s1
  0.05	-1.5
100: COc1ccc(/C=N/NC(=O)CSCc2ccc([N+](=O)[O-])cc2)cc1OC
  0.16	-0.15
101: CC(C)c1cc(C(C)C)c(S(=O)(=O)N2c3ccccc3[C@@]3(Br)C[C@H]4C(=O)N[C@@H](Cc5ccccc5)C(=O)N4[C@@H]23)c(C(C)C)c1
  0.24	-0.11
102: C=CCN1C(=O)/C(=C\c2cc(Br)c(OCc3ccccn3)c(OC)c2)SC1=S
  0.45	-1.1
103: COc1cccc(Cn2c(=O)c3[nH]cnc3n(-c3ccccc3C)c2=O)c1
  0.71	-0.16
104: CN(C)S(=O)(=O)c1ccc2nnn(OCC(=O)NC34CC5CC(CC(C5)C3)C4)c2c1
  1.3	-0.35
105: CC(=O)N1CCc2cc(S(=O)(=O)CCC(=O)N(C)c3cc(C)ccc3C)ccc21
  0.08	1.4
106: CCOC(=O)N1CCC(NC(=O)c2cnn3ccccc23)CC1
  0.09	0.02
107: O=C(O)/C=C/c1ccc2noc(-c3ccccc3)c2c1
  0.26	1.8
108: COc1cccc2cc(C(=O)Nc3ccccc3C)/c(=N/NS(=O)(=O)c3ccccc3)oc12
  1.1	0.46
109: O=C1c2cccnc2Nc2ccccc2N1CCCF
  2.8	0.02
110: Cc1cc(C)cc(NS(=O)(=O)c2csc(C(N)=O)c2)c1
  0.61	-1.3
111: CC(C)CCn1cnc2c(sc3nc4c(cc32)CSC(C)(C)C4)c1=O
  0.11	1.1
112: O=C(OCC(=O)c1cccs1)c1ccc(NC(=O)c2ccco2)cc1
  1.2	0.11
113: CC1(C)CC2(C)Nc3ccccc3N2C(=S)N1 (configuration not stated)
  1.5	-0.25
114: O=C(NCc1ccc2c(c1)OCO2)C1CC(=O)N(CCc2ccccc2)C1 (configuration not stated)
  1.8	-1.6
115: C=CCn1c(CNc2ccccc2)nnc1SCC(=O)N/N=C/c1ccc(O)cc1O
  0.43	1.4
116: CCOC(=O)c1c(NC(=O)C2Cc3ccccc3C(=O)O2)sc2c1CCCC2 (configuration not stated)
  0.71	-0.08
117: O=C(CCN1C(=O)c2ccccc2C1=O)Nc1cccnc1
  0.35	0.02

# Source: PubChem

# These rows are one share of the data; the hit share may differ from the screen's.
